Screening data as filed in PubChem.
Mtb hypoxia inh: inhibitors of hypoxia-regulated fluorescent reporter in Mycobacterium tuberculosis. M. tuberculosis hypoxia-regulated fluorescent reporter, fluorescence. fluorescence inhibition, % (test concentration not listed). 300,000 compounds, 0.1% hits;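 active means 35 to 45% if threefold the growth effect, above 45% if 1.5-fold the growth effect; inactive means the rest, general growth blockers included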;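 further: wells of about 50 µL received 100 nL stock; 0% = vehicle wells and 100% = reference inhibitor wells; whole bacteria with a GFP reporter of the hypoxia response; strong numbers were not always called active; many hits fall short of the cut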
BJeLR lethal: kills HRASV12-expressing BJeLR cells; inhibition, % (no concentration beside the values); BJeLR (HRASV12) viability, CellTiter-Glo ATP luminescence, 48 h; reference of the scale not given here; 300,000 compounds, 0.17% hits;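 active means replicate mean above 50%; inconclusive means above 50% but judged a plate artefact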;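 further: 50 nL library stock added to about 25 µL; numbers are from one replicate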
Sa ugtP lethal: kills S. aureus RN4220 lacking UgtP; S. aureus RN4220 ugtP deletion, OD600 growth, 16 h; some inactives read as strong as hits; growth inhibition, % (concentration not given with the values); 330,000 compounds, 0.54% hits; AID 1259309;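 active means z-score under -3 and OD600 up to 0.15 on both plates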;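 further: plate controls were untreated wells for no effect and antibiotic for full effect; wells of about 80 µL received 100 nL stock; the first replicate is given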
Autofluor counter: counter-screen for toxin protease inhibitors: compound fluorescence; compound autofluorescence counterscreen, microsphere flow cytometry; stronger effect = higher value; AID 624483; 360,000 compounds, 3.1% hits; fluorescence intensity (no concentration beside the values);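 active means at least 3 SD above the mean of all compounds, about 16000 in these data; inconclusive means too few beads counted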;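 further: 100 nL of 1 mM stock went into each well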
PrP 5UTR inh: inhibition of PrP 5' UTR reporter expression; cell-based PrP 5' UTR mRNA reporter, plate reader; inhibition, % (concentration not given with the values); 340,000 compounds, 0.35% hits; AID 488862;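 active means every replicate at 50% or more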;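 further: 0 = median of the neutral control wells; tested in H4 reporter cells; numbers are from one replicate; inactives centre near -14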
Sa RN4220 lethal: S. aureus RN4220 growth inhibition; OD600, 16 h; inhibition, % (test concentration not listed); 330,000 compounds, 0.33% hits; AID 1259311;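 active means z-score of -3 or lower and OD600 up to 0.18 on both plates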;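 further: plate controls were untreated cells for no effect and reference antibiotic for full effect; stock transfer was 100 nL into about 80 µL; one replicate is shown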
Mtb hypoxia inh growth: recorded beside Mtb hypoxia inh, whose call it bears; growth inhibition, %; measured here: M. tuberculosis growth (absorbance);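 0% = vehicle and 100% = reference antibiotic; read after six days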
* marks the source's active call; other numbers are inactive results; ? = inconclusive; · = not tested or not shown.

SMILES	PrP 5UTR inh	Mtb hypoxia inh	Mtb hypoxia inh growth	Autofluor counter	BJeLR lethal	Sa RN4220 lethal	Sa ugtP lethal
O=c1c2c3nc4ccccc4nc3n(/N=C/c3ccco3)c2ncn1CCC1=CCCCC1	-17	·	·	5956	11	·	·
C(=N/Nc1nccs1)/c1cccnc1	-11	·	·	4669	5	·	·
COc1cccc(OC)c1NC(=O)Cn1nc(C)c2ccccc2c1=O	-6	11	13	4061	-3	2.2	12
O=C(Nc1cc(C(F)(F)F)ccc1N1CCOCC1)c1cccnc1	10	4	10	15780	-28	1.1	-1
O=C(NNC(=O)c1ccc(F)cc1F)c1ccc2c(c1)OCO2	-48	5	7	3637	2	1.5	-1
COc1ccccc1C(=O)COC(=O)CCN=C1NS(=O)(=O)c2ccccc21	-36	9	0	5043	5	3.1	3
COc1ccc(N2CC(C)Cn3c2nc2c3c(=O)n(Cc3ccc(C)cc3)c(=O)n2C)c(OC)c1 (stereo not given)	-20	2	-4	4810	4	0.7	11
Cc1cccc(C)c1NC(=O)CSCC(=O)O	-23	·	·	2504	-15	3.6	7
CCCCOC(=O)C1CCCC(C)N1 (stereo not given)	-14	6	-2	7745	-2	1.4	9
COCC(C)Nc1nc(C)c(C(C)=O)s1 (stereo not given)	-26	11	-1	4307	12	4.2	4
COc1ccccc1Nc1nc2c(C)cccc2cc1C#N	-15	-4	-5	16724*	-3	-0.7	0
COc1cc(/C=C/C(=O)OCC(=O)NC(=O)NCc2ccccc2)ccc1OCC#N	-26	2	11	4721	-12	2.8	4
Cc1cc(OC(=O)c2cc(C(F)(F)F)cc(C(F)(F)F)c2)c([N+](=O)[O-])c(=O)[nH]1	-13	9	-1	5770	1	5.0	6
C[C@H](NC(=O)c1nc[nH]c1C(=O)N1CCN(c2ccccc2)CC1)C(=O)OCc1ccccc1	-8	·	·	2863	-2	·	·
COC(=O)c1cc(C#N)c(OC(C)C)nc1C	-5	5	-16	2022	-6	-0.1	2
C[C@@H]1CC[C@]2(O[C@@H](CCO)C[C@@H](O)[C@@H]2O)O1	-22	·	·	3091	-13	·	·

Two of the compounds above, with each value named.
CCCCOC(=O)C1CCCC(C)N1 (stereo not given)
  PrP 5UTR inh: -14
  Mtb hypoxia inh: 6
  Mtb hypoxia inh growth: -2
  Autofluor counter: 7745
  BJeLR lethal: -2
  Sa RN4220 lethal: 1.4
  Sa ugtP lethal: 9

COCC(C)Nc1nc(C)c(C(C)=O)s1 (stereo not given)
  PrP 5UTR inh: -26
  Mtb hypoxia inh: 11
  Mtb hypoxia inh growth: -1
  Autofluor counter: 4307
  BJeLR lethal: 12
  Sa RN4220 lethal: 4.2
  Sa ugtP lethal: 4

(further entries)
SMILES	PrP 5UTR inh	Mtb hypoxia inh	Mtb hypoxia inh growth	Autofluor counter	BJeLR lethal	Sa RN4220 lethal	Sa ugtP lethal
Cc1ccc(C(=O)O/N=C(\N)Cc2cccs2)c(Cl)c1	-76	7	16	5968	16	6.1	4
CCc1nc(N2CCN(C(C)=O)CC2)c(C#N)c2c1COC(C)(C)C2	-5	2	-1	5791	2	3.8	9
COCc1cccc(NC(=O)CCc2ccccc2)c1	-30	1	13	4894	3	1.5	-6
COc1cccc(/C=C/c2ccc3cccc(O)c3n2)c1OC	-26	·	·	3734	-3	·	·
Cc1cccc(C)c1-n1ncc(C(=O)NC2CCCC2)c1C1CCNCC1	1	4	-1	?	10	3.1	4
Nc1ccccc1-[n+]1c(-c2ccccc2)cc(-c2ccccc2)cc1-c1ccccc1	-4	21	25	6020	19	-0.4	-10
COc1cccc(/C=N/NC(=O)c2c(C)nc3ccc(Br)cn23)c1	-4	·	·	4222	-1	·	·
O=C1c2ccccc2C(O)N1CCN1CCOCC1 (stereo not given)	-11	3	2	6545	4	-11	-4
Cc1cc(/C=C2\C(=N)N3N=C(CC(=O)N4CCOCC4)SC3=NC2=O)c(C)n1-c1ccccc1	-13	12	7	5029	-12	1.1	1
COc1ccc(-c2csc(N(CCCN3CCOCC3)C(=O)CCl)n2)cc1	-20	-1	-18	3446	3	1.6	11
NC(=NOC(=O)c1ccccc1Br)c1cccc([N+](=O)[O-])c1	·	6	8	·	·	3.7	7
COc1ccc(F)cc1S(=O)(=O)n1nc(C)cc1C	0	·	·	3995	-1	·	·
NC(Cc1ccc([N+](=O)[O-])cc1)=NOC(=O)Cc1ccccc1	·	-19	19	·	·	-1.6	7
CC(C)[C@H]1C=C(C(=O)O)O[C@@H](OCCCCO)C1	-5	·	·	4161	15	·	·
O=S(=O)(c1cnc[nH]1)N1CCN(C(c2ccc(F)cc2)c2ccc(F)cc2)CC1	-33	-4	-1	6280	8	-4.9	19
Cc1ccc(CS(=O)(=O)Cc2ccc(C(=O)NCc3cccs3)o2)cc1	-7	-5	-10	4750	-3	7.2	0
O=C(Nc1ccc(C(F)(F)F)cc1)c1ccc2nc[nH]c2c1	-27	1	-7	2114	-1	-12	-11
CCCC(C(=O)NCc1ccco1)N(Cc1ccco1)C(=O)CNS(=O)(=O)c1ccccc1 (stereo not given)	-10	6	6	3714	-13	3.9	4
COc1cccc(OCCNS(=O)(=O)c2ccccc2[N+](=O)[O-])c1	-17	0	4	3573	·	5.7	-8
CCOc1ccc2cc(C#N)c(SCC(=O)OC)nc2c1	-74	2	-2	5787	5	3.0	-10
Cc1cc(C(=O)N/N=C/c2ccc(-c3cccc(Cl)c3)o2)n[nH]1	-14	·	·	?	-3	·	·
O=C(CSc1n[nH]c(-c2ccccc2)n1)NCc1cccc(C(=O)O)c1	-11	-4	1	3497	-2	5.3	6
O=C(Nc1cccc(NC(=O)c2ccc3c(c2)OCO3)c1)c1ccccc1	-8	10	5	4321	4	7.8	1
CC(=O)c1ccc(N2CCN(C(=O)CCCn3c(=O)[nH]c4ccccc4c3=O)CC2)cc1	-12	16	2	4036	-4	17	12
O=C(CCCOc1ccc(Cl)cc1Cl)N/N=C/c1ccccc1	-8	·	·	2146	-15	·	·
O=C(NCc1ccco1)c1ccc2c(c1)C(=O)c1ccccc1-2	·	5	9	9713	5	-0.1	12
CC12CCC(=O)C=C1CCC1C2CCC2(C)C1CCC2(O)CC#N (stereo not given)	-21	-6	12	4068	·	3.2	1
Cc1ccc(C(C(=O)NC2CCCCC2)N(C(=O)Cc2c[nH]c3ccccc23)c2ccccc2C)o1 (stereo not given)	-4	-5	-4	2439	7	0.3	-13
CC(C)Nc1nc(NC(C)C)nc(OCCOC(=O)Nc2ccccc2)n1	-25	7	3	11250	3	3.7	-1
Oc1cccc2c(NC(=S)Nc3ccc(OC(F)F)cc3)cccc12	16	1	3	2119	-4	-1.0	9
COc1ccc(CC(=O)Nc2cccc(S(=O)(=O)N3CCOCC3)c2)cc1OC	-5	-8	0	8817	·	2.3	1
CCN1C(=O)C2C(c3ccc(C)cc3)N3C(=O)N(c4cccc(Cl)c4)C(=O)[C@@]3(Cc3ccc(Cl)cc3)C2C1=O (stereo not given in full)	·	8	5	·	·	11	-24
CCCN1C(=O)C2(SC(NC(C)=O)=NN2C(C)=O)c2cc(C)cc(C)c21 (stereo not given)	-7	1	2	3202	-16	1.8	9
Cc1cc(NC(=O)Nc2ccc3c(ccn3C)c2)sn1	-34	-3	4	5198	-16	-2.3	-15
Cc1c(NC(=O)C(C)OC(=O)C23CC4CC(CC(Br)(C4)C2)C3)c(=O)n(-c2ccccc2)n1C (stereo not given)	28	17	1	4402	-3	6.1	4
COC(=O)CCCC(=O)N1CCCC(C(=O)c2ccc(-c3ccccc3)cc2)C1 (stereo not given)	-18	3	4	4128	2	6.3	10
O=C(Nc1ccccc1F)c1ccccc1-c1ccccc1	-17	6	12	2221	-10	7.0	9
CC1(C)CC(=O)NC=C(c2ccccc2)C1	-16	-2	-3	2858	1	-18	-6
Cc1cc(C(=O)N2CCCC(N3CCN(c4cccc(C(F)(F)F)c4)CC3)C2)nn1C (stereo not given)	-18	5	4	5123	8	3.3	13
CC1(c2ccc3ccccc3c2)NC(=O)N(CC(=O)Nc2ncccc2O)C1=O (stereo not given)	-20	8	18	4646	·	2.5	4
Cc1ccc(-c2csc(Nc3ccccc3)[n+]2CCc2ccccc2)cc1	-40	15	10	4225	-6	-5.8	16
O=S(N1CCCCCC1)C12CC3CC(CC(C3)C1)C2 (stereo not given)	-21	26	18	3731	18	0.5	-11
COC(=O)C1=C(c2ccc(OC(F)(F)F)cc2)CC2CCC1N2C(=O)NCCOc1ccc(OC)cc1 (stereo not given)	·	1	6	·	·	-3.2	7
COc1ccc(S(=O)(=O)N2CCCCCC2)cc1NC(=O)Cc1ccccc1F	-5	16	4	4864	-4	6.2	3
COc1ccc(C(c2nnnn2CC2CCCO2)N2CCN(c3ccc(F)cc3)CC2)cc1 (stereo not given)	-25	·	·	2510	13	-3.2	34
Nc1nnnn1CC(=O)NN=Cc1ccc(-c2cccc(Cl)c2)o1	·	3	0	·	·	-3.7	-14
CCC(=O)N1c2ccc(S(=O)(=O)NC3CCCCC3)cc2CC1C (stereo not given)	-10	4	6	5097	1	3.9	7
CCCCNC(=O)COC(=O)c1c2c(nc3ccccc13)/C(=C/c1cccs1)CC2	-18	3	5	6060	·	4.7	-7
N#Cc1nc(Cc2ccccc2)oc1NCc1cccnc1	-16	7	6	2381	-7	-3.9	0
Cc1cc(C)n(C(=O)c2cccc([N+](=O)[O-])c2C)n1	-12	0	6	3809	2	3.1	2
C=CCn1c(O)c(N=O)c2cc(C)ccc21	-11	·	·	4604	-2	·	·
C=C(C)CSc1nnc([C@@H](N)Cc2c[nH]c3ccccc23)o1	-36	6	7	19997*	-9	10	-8
CC(C)(C)c1cc(/C=N/O)cc(C(C)(C)C)c1O	-6	·	·	2236	-3	·	·
CCc1cc2c(=O)c(-c3nc(C)cs3)coc2cc1O	-37	1	5	4797	8	5.6	3
NC(=NOC(=O)c1ccc(Cl)cc1[N+](=O)[O-])c1ccccn1	·	4	11	·	·	-1.7	5
CC1CC(=O)Nc2ccccc2N1C(=O)Cn1cnc2ccc(Br)cc2c1=O (stereo not given)	-11	2	-9	?	·	0.9	-3

More results:
SMILES	PrP 5UTR inh	Mtb hypoxia inh	Mtb hypoxia inh growth	Autofluor counter	BJeLR lethal	Sa RN4220 lethal	Sa ugtP lethal
O=C(Nc1ccc(Cl)cc1)c1ccc(OCC2CCCO2)cc1 (stereo not given)	-110	1	3	4105	12	5.8	6
Cc1ccc(OCC(=O)OCC(=O)NC2CCCC2)cc1C	-19	-4	-3	3843	·	11	10
Cn1cc(C(=O)c2cccc(Cl)c2Cl)cc1C#N	-14	5	-2	3602	5	8.3	8
Cc1cc(NS(=O)(=O)c2ccc(NC(=O)c3ccccc3F)cc2)no1	6	15	6	·	·	-2.4	-5
CCCN(CC(=O)Nc1cc(Cl)ccc1Cl)C(=O)c1ccccn1	-3	-6	7	?	·	0.6	0
O=C(N/N=C/c1cccnc1)c1cc2c(ccc3ccccc32)o1	-9	·	·	3304	1	·	·
CC(=O)NC(Cc1ccccc1)C(=O)NC1CCN(C(=O)NCc2ccccc2)CC1 (stereo not given)	-15	-1	2	4616	-5	-0.2	2
O=C(c1ccc(Cl)cc1)N1CCCCC(Sc2nnc(-c3ccc4c(c3)OCO4)o2)C1=O (stereo not given)	74*	7	14	3737	6	-3.2	1
COc1ccc(S(=O)(=O)N2CCCC(C(=O)N3CCN(c4ccccc4)CC3)C2)cc1Cl (stereo not given)	-12	2	5	6047	-9	-0.8	0
COc1cccc(-c2cc(C(F)(F)F)nc(-n3cc(Cl)cn3)n2)c1	11	21	-5	3008	6	20	-10
CC(C)(C)c1ccc(NC(=O)CNC2CCCc3ccccc32)cc1 (stereo not given)	-22	3	2	2921	-1	2.2	-4
C#CC(=O)CCC1CCCN1C(=O)OC(C)(C)C (stereo not given)	-16	11	9	4410	·	12	7
O=C(NN=Cc1ccccn1)c1c[nH]c2ccccc12	·	4	-1	·	·	6.2	-5
O=C(NC(c1ccccc1)C(Cl)(Cl)Cl)c1ccccc1 (stereo not given)	-11	13	7	2079	-3	1.6	10
CSc1nc(Cl)cc(=O)[nH]1	-9	12	6	3272	7	2.3	3
Cc1sc2ncn(CC(=O)N3CCOCC3)c(=O)c2c1-c1ccccc1	-3	-10	4	3516	2	0.0	0
Cc1nc2c(ncn2-c2ccccc2)c(=O)n1NC(=O)CN1CCOCC1	-28	1	0	6771	2	2.4	8
